# Lamin A splicing = changes lamin A minigene splicing in HeLa cells; HeLa LMNA splicing GFP/RFP minigene ratio, 48 h; Potency, µM (top dose mostly 46.1 µM), for the others: at the highest dose ratio change, negative = inhibition, most hits filed as inhibitors; AID 1487; hit rate 0.01% among 200,000; active = well fitted inhibition curve with a large enough effect in the signal ratio, with a control signal flat, not every such curve was filed as active; inconclusive = small, poorly fitted or top-dose-only effect, or effect the other way, or a change in a side signal; the % refers to the signal ratio; also: % is scaled to controls: 0 for no effect and ±100 for the full control effect
#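 S3 HeLa cells stably expressing lamin A-EGFP splicing minigene plus DsRed2, 600 cells/well, 48 h compound exposure at 37C. Laser-scanning cytometry; analysed as GFP (500-530 nm)/RFP (575-640 nm) total intensity ratio; 0.5% DMSO vehicle.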
# Epigenetic reg = regulators of epigenetic silencing causing reporter derepression in mouse cells; hit rate 0.2% among 280,000; AID 1865; Potency, µM (top dose mostly 53.9 µM), without a hit: top-dose GFP activation, actives largely listed as activators; murine LDR cells, GFP reporter derepression, 30 h; also: % of control where 0% means no effect; nearly all actives have a fitted effect of over 60% in size
#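 In this reporter-derepression format, murine cells bearing a silenced integrated CMV-GFP locus incubate with test compound (30 h, 37 C), then are washed and imaged; fluorescent objects of 20–120 um count as induced cells.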
# HTT aggregate = inhibitors of mutant huntingtin aggregate formation in PC12 cells | PC12 HttQ103-GFP aggregates, Acumen cytometry, 40 h | Potency, µM (series often up to 46.1 µM), for the others: at the highest dose activity change, negative = inhibition, usual class: inhibitors | hit rate 1.1% among 220,000 | AID 1688; also: % is scaled to controls: 0 for no effect and ±100 for the full control effect; nearly all actives have a fitted effect of over 60% in size
#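 Aggregates are detected as GFP objects 1–25 µm with signal 6 STDEV over background in lysates of induced PC12 cells. These carry Huntingtin exon 1 with 103 glutamines fused to GFP under an ecdysone promoter; compounds titrated.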
# NPSR antagonist = antagonists of human neuropeptide S receptor cAMP signaling | Q6W5P4 | CHO-NPSR cells, cAMP TR-FRET, antagonist mode | Potency, µM (doses to about 38.3 µM), for the others: top-dose activity change, negative = inhibition, actives largely listed as inhibitors | hit rate 1% among 220,000; also: % is scaled to controls: 0 for no effect and ±100 for the full control effect; nearly all actives have a fitted effect of over 50% in size; many of its hits are not listed in these tables
# Target sequence (Q6W5P4 whole entry, looked up): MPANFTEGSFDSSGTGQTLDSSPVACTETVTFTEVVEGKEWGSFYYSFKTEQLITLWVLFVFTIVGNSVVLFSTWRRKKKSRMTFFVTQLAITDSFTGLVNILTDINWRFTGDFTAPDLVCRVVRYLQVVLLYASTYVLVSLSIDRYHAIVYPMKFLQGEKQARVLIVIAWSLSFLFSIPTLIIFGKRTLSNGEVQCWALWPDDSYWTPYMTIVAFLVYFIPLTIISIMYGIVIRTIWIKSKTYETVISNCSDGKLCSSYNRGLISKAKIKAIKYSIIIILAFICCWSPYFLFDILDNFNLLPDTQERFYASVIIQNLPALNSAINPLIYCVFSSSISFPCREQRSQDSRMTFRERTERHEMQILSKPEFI
# The depositor's hits bear a star; ? = inconclusive; / = not tested or not shown; & = joins results of further samples; [ ] = dose if it differs, or a comment. Unless noted, calls follow the shape of the dose curve; as a rule, active = well fitted curve in the direction sought with a large enough effect; inconclusive = small, poorly fitted or top-dose-only effect, or another doubt; inactive = no such curve, though single readings can be large; an effect the other way counts as inactive or inconclusive. Potency is read from the fitted curve at half-maximal effect.
# Codes: A = Lamin A splicing; B = Epigenetic reg; C = HTT aggregate; D = NPSR antagonist
> C=C1C/C(=C\C)C(=O)O[C@@H]2CCN3CC=C(COC(=O)[C@@]1(C)O)[C@H]23
  A: -24.1%	B: -0.3%[16.9 µM]	C: /	D: /
> C[C@@H]1O[C@@H](O[C@H]2C[C@@H](O)[C@]3(CO)[C@H]4[C@H](O)C[C@]5(C)[C@@H](C6=CC(=O)OC6)CC[C@]5(O)[C@@H]4CC[C@]3(O)C2)[C@H](O)[C@H](O)[C@H]1O
  A: ?	B: 3.2%	C: -16.6%	D: 16.8%
> Cc1nnc2n1-c1ccc(Cl)cc1C(c1ccccc1)=NC2
  A: ?	B: 9.4%&2.1%	C: -13.1%	D: 36.0%
> COP(=O)(OC)OC=C(Cl)Cl
  A: ?	B: /	C: -7.8%	D: /
> C=C1C/C(=C/C)C(=O)O[C@@H]2CCN3CC=C(COC(=O)[C@]1(C)O)[C@@H]23
  A: /	B: -0.4%	C: /	D: /
> CCc1cccc(CC)c1N(COC)C(=O)CCl
  A: -5.4%	B: 0.3%	C: /	D: /
> CCCCOc1ccc(CC2C(=O)N(C)C(=O)N(C)C2=O)cc1
  A: 11.1%	B: -6.1%	C: 12.3%	D: -12.0%[46.1 µM]
> CC1O[C@@H](OC2CC(O)[C@@]3(CO)C4C(O)C[C@@]5(C)C(C6=CC(=O)OC6)CC[C@]5(O)C4CC[C@]3(O)C2)C(O)C(O)C1O (some centres not stated)
  A: /	B: 0.8%	C: /	D: /
> C[N+]1(C)[C@@H]2CC(OC(=O)[C@H](CO)c3ccccc3)C[C@H]1[C@@H]1O[C@@H]12 (some centres not stated)
  A: ?	B: 1.1%&-0.4%	C: -1.6%	D: 8.8%&7.8%
> CN1[C@H]2CC(OC(=O)[C@H](CO)c3ccccc3)C[C@H]1[C@H]1O[C@H]12 (some centres not stated)
  A: ?	B: /	C: 11.0%	D: /
> COc1ccc2c(c1OC)C(=O)OC2C1c2cc3c(cc2CCN1C)OCO3 (configuration not stated)
  A: ?	B: -1.2%&2.1%&-0.3%&-0.5%&2.7%	C: -0.5%	D: -19.4%[46.1 µM]
> CC(C)(O)C1C2OC(=O)C1[C@]1(O)CC3O[C@@]34C(=O)OC2[C@@]14C (some centres not stated)
  A: /	B: -1.3%	C: /	D: /

# Compound profiles, from the list above.
# Results for CC(C)(O)C1C2OC(=O)C1[C@]1(O)CC3O[C@@]34C(=O)OC2[C@@]14C (some centres not stated) : Lamin A splicing: /; Epigenetic reg: -1.3%; HTT aggregate: /; NPSR antagonist: /
# Results for CCCCOc1ccc(CC2C(=O)N(C)C(=O)N(C)C2=O)cc1 : Lamin A splicing: 11.1%; Epigenetic reg: -6.1%; HTT aggregate: 12.3%; NPSR antagonist: -12.0%[46.1 µM]

# Given in CSV form: part of the list above
smiles,Lamin A splicing,Epigenetic reg,HTT aggregate,NPSR antagonist
CN1[C@H]2CC(OC(=O)[C@H](CO)c3ccccc3)C[C@H]1[C@H]1O[C@H]12 (some centres not stated),?,/,11.0%,/
CCc1cccc(CC)c1N(COC)C(=O)CCl,-5.4%,0.3%,/,/
Cc1nnc2n1-c1ccc(Cl)cc1C(c1ccccc1)=NC2,?,9.4%&2.1%,-13.1%,36.0%
COc1ccc2c(c1OC)C(=O)OC2C1c2cc3c(cc2CCN1C)OCO3 (configuration not stated),?,-1.2%&2.1%&-0.3%&-0.5%&2.7%,-0.5%,-19.4%[46.1 µM]
C[C@@H]1O[C@@H](O[C@H]2C[C@@H](O)[C@]3(CO)[C@H]4[C@H](O)C[C@]5(C)[C@@H](C6=CC(=O)OC6)CC[C@]5(O)[C@@H]4CC[C@]3(O)C2)[C@H](O)[C@H](O)[C@H]1O,?,3.2%,-16.6%,16.8%

# Compound activity: PubChem, National Center for Advancing Translational Sciences (NCATS)

# An excerpt; the hit share may differ from the screen's.
